Screening results: PubChem, National Center for Advancing Translational Sciences (NCATS)
gsp antag = antagonizes gsp, the McCune-Albright syndrome mutation. gsp-mutant cells, cAMP HTRF, 30 min; control for the full effect not named in the record. Potency, µM (top dose mostly 76.9 µM), for the others: top-dose activity change, negative = inhibition, usual class: inhibitors. 340,000 compounds, 0.4% hits. AID 624288; active = falling curve of any shape with a large fitted effect; inconclusive = falling curve, mostly with a smaller effect; inactive = flat or rising curve; cell line not stated here;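 note: intracellular cAMP measured with PDE inhibitor Ro 20-1724 present during compound exposure; potency is the fitted concentration of half-maximal effect; % is set by controls: 0 for no effect and ±100 for the full control effect; nearly all actives have a fitted effect of over 65% in size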
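Cells in G418 medium, seeded 16-24 h, 37C; buffer exchange to DPBS + 1 mM CaCl2, 0.5 mM MgCl2, 0.05% BSA; cpds in DMSO + […] (300 uM stock), 30 min 37C; HTRF cAMP detection.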
TRPML1 inh = inhibitors of human TRPML1 channel; AID 624415; Q9GZU1; TRPML1-inducible cells, Ca2+ dye fluorescence, FDSS; stronger effect = lower value; inhibition of EC80 agonist-evoked calcium signal; 390,000 compounds, 0.02% hits; activity change, negative = inhibition, % (test concentration not listed); in the data active means activity change below about -50%; inconclusive means about -30% to -50%; inactive means above about -30%;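 note: stimulus is agonist 54-4 at its EC80 concentration; % is set by controls: 0 for no effect and ±100 for the full control effect; compound concentration not given in the record; the text of the record puts the active cut at -80%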
Target sequence (Q9GZU1 whole entry, looked up): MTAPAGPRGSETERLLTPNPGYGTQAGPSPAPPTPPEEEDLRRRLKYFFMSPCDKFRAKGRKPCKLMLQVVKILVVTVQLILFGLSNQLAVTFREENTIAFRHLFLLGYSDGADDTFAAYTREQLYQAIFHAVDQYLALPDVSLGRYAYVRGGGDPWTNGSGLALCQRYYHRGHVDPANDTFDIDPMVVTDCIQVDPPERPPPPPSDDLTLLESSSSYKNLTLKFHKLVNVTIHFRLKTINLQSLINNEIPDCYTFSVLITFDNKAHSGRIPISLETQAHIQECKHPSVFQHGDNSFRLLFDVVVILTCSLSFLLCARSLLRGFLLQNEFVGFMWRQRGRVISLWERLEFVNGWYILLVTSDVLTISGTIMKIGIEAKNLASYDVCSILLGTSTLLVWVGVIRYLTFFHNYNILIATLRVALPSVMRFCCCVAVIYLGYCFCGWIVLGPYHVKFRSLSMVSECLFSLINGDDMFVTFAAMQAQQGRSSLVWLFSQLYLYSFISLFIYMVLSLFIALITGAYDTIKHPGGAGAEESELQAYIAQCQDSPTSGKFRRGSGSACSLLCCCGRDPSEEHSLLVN
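Calcium fluorescence in TRPML1-DL cells induced overnight with Tet: a 110 s read after compound pin addition, then a 110 s antagonist read after challenge with 54-4 at 4 uM final (EC80).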
ClpP mod = qHTS Assay for Activators of ClpP; purified B. subtilis ClpP, FRET peptide cleavage, 20 min; 340,000 compounds, 1.9% hits; Potency, µM (highest dose often 57.5 µM), inactives show at the highest dose activity change, negative = active; active = well fitted falling curve with a large enough effect; inconclusive = small, poorly fitted or top-dose-only effect; inactive = no such curve, though single readings can be large or run the other way; note: potency is the fitted concentration of half-maximal effect; the source files actives as falling curves though it sought activators and does not explain the sign; nearly all actives have a fitted effect of over 65% in size; many hits overshoot -100%
Target sequence (P80244 whole entry, looked up): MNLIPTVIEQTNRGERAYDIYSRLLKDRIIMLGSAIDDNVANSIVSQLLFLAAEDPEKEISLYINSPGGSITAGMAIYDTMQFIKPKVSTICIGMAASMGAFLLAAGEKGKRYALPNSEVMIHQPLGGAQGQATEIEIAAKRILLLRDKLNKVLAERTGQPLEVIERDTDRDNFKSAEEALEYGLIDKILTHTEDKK
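Buffer: 100 mM Tris/HCl pH8, 100 mM KCl, 0.05% low protease BSA, 2.5% glycerol, 0.01% Tween-20. ClpP 10 microg/mL final; 20 min RT; delta FRET normalized to ADEP and DMSO controls.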
Menin MLL FP FL = menin-MLL binding inhibition, fluorescein peptide; Fluorescence polarization, fluorescein-MLL peptide displacement from menin; FP activity change, % at 61.4 µM; 290,000 tested, under 10 active; AID 1766; inconclusive = falling polarisation curve, or a change in total fluorescence; inactive = total fluorescence flat and polarisation flat or rising; no compound was filed as active; the % refers to the polarisation; negative = inhibition;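 note: % of control where 0% means no effect; inhibitors lower the polarisation; unlabelled MLL peptide was the positive control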
gsp agonist = activates gsp, the McCune-Albright syndrome mutation; gsp mutant cells, cAMP HTRF, 30 min; control for the full effect not named in the record; Potency, µM (doses to about 76.9 µM), inactives show at the highest dose activation (cAMP increase), actives largely listed as activators; 340,000 compounds, 0.13% hits; AID 624287; active = well fitted activation curve with a large enough effect; inconclusive = small, poorly fitted or top-dose-only effect, or another doubt; inactive = no such curve, though single readings can be large or run the other way; cell line not stated here;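 note: phosphodiesterase inhibitor Ro 20-1724 added with compounds to block cAMP breakdown; potency is the fitted concentration of half-maximal effect; nearly all actives have a fitted effect of over 60% in size; about a fifth of the inactives were tested at one dose only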
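Cells stably selected in G418 were plated at 2000/well, grown 16-24 hr, then given compounds in DMSO with the PDE inhibitor […] (300 uM solution added) for 30 min at 37C; cAMP was read by HTRF.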
TRPML1 agonist = agonists of human TRPML1 channel | TRPML1-expressing cells, Ca2+ dye fluorescence, FDSS; host cell line not named in the record; reference of the full effect not given here | activation, % (test concentration not listed) | 410,000 compounds, 0.12% hits | AID 624414; in the data active = activation above about 50%; inconclusive = about 30% to 50%; inactive = below about 30%; note: 0% is about no effect; the text of the record puts the active cut at 80%
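Cells: TRPML1-DL, 1X Tet inducer, ~16 h at 37 degrees C/5% CO2. Dye: ABD Ca8 no-wash + quencher, 45-90 min RT. Read: 10 s baseline, compound add, 110 s agonist phase; 54-4 EC80 (4uM final), 110 s antagonist phase.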
Active calls of the source: *; ? = inconclusive; . = no result given; & = joins results of further samples; [ ] = dose if it differs, or a comment.

molecule	gsp antag	TRPML1 inh	ClpP mod	Menin MLL FP FL	gsp agonist	TRPML1 agonist
COc1cccc(NC(=O)N(C2CCCCC2)C(C)c2cccs2)c1 (stereo not drawn)	-17.3%	-6.8	3.8%	-2.6	-5.6%	2.8
CCN(CC)C(=O)C1=C(C)N(CCCOC)C(=O)C(CC(=O)NC(c2ccccc2)c2ccccc2)C1 (stereo not drawn)	.	47.9	0.2%	.	-3.3%	0.0
Cc1ccc2c(c1)C(c1ccccc1)N(C(=O)c1ccccc1[N+](=O)[O-])CC(=O)N2 (stereo not drawn)	-6.3%	6.5	.	7.4	-1.1%[15.4 µM]	-0.6
CCCCSCCCNC(=S)Nc1ccccc1C	7.9%	7.0	.	-5.4	10.3%[15.4 µM]	1.3
COc1ccc(C=O)cc1COc1ccc(F)cc1F	-9.8%	13.1	1.1%	5.4	-45.2%[inhibitor]	-0.6
Cc1ccc(-c2csc(NC(=O)C3=NN(c4ccccc4)C(=O)CC3)n2)cc1	-26.0%	-1.8	.	6.6	23.6%[15.4 µM]	-0.5
C=CCn1c(SCC(=O)Nc2ncc(Cc3ccc(Br)cc3)s2)nnc1-c1ccncc1	6.1%	23.3	0.9%	4.2	-10.2%	0.1
Cc1nc(SCC(=O)Nc2ccccc2Cl)oc1C	-2.3%	3.6	0.7%	.	?	0.5
CCN(c1ccccc1)S(=O)(=O)c1ccc(OC)c(NC(=O)CN2C(=O)NC(C)(C)C2=O)c1	9.0%	-3.4	1.4%	.	?	4.6
Cc1ccc(CN2CCN(CC(=O)N/N=C/c3ccc(C)o3)CC2)cc1	1.3%	?	-2.3%	4.0	-1.5%	0.7
CCC(CC)C(=O)N1CCc2cc(OC)c(OC)cc2C1COc1ccc2c(C)cc(=O)oc2c1 (stereo not drawn)	.	17.2	0.0%	.	.	-1.1
CCCCN(C(=O)C(C)(C)Oc1ccc(Cl)cc1)c1c(N)n(CCC)c(=O)[nH]c1=O	1.9%	-5.9	1.3%	.	27.8%	-1.0
CCC1CCCCN1CCCNC(=O)C(C)n1nc(C)c2sc3ccccc3c2c1=O (stereo not drawn)	-19.1%	-11.9	3.9%	-5.0	?	-0.3
CCCCN(C(=O)CCn1c(=O)oc2ccccc21)c1ccccc1	-8.9%	-10.1&0.7	2.6%&-0.1%	0.4	-0.7%	-0.5&0.6
O=C(CCN1C(=O)c2ccccc2S1(=O)=O)Nc1ccc(Cl)cc1	-10.1%	-6.2	0.6%	4.9	18.7%	1.5
Cc1cccc(Cn2cc(S(=O)(=O)c3cccc(Cl)c3)c(=O)c3cc(F)c(N4CCOCC4)cc32)c1	.	-12.6	-5.0%	.	.	0.8
Nc1nc(NCC2CCCO2)nc(Nc2cccc(F)c2)c1[N+](=O)[O-] (stereo not drawn)	13.5%	-3.9	1.9%	-0.2	?	1.8
O=C1C2CC=C(Cl)CC2C(=O)N1CN(Cc1ccco1)CN1C(=O)C2CC=C(Cl)CC2C1=O (stereo not drawn)	-3.6%	-7.4	?	?	-47.7%[inhibitor]	-0.4
COC(=O)c1ccccc1NC(=O)c1cnn(-c2ccc(F)cc2)c1-n1cccc1	.	-13.7	-22.6%	.	.	2.5
Cc1ccc(CN(Cc2ccccc2)C(=S)NCC(=O)NCc2cccnc2)o1	4.6%	-1.3	1.1%	0.5	-40.0%[inhibitor]	-0.7
CCOC(=O)c1cnc(-c2ccccc2)nc1N1CCOCC1	-0.7%	3.9	.	0.2	11.0%[15.4 µM]	-0.6
O=S(=O)(Nc1ncnc2sccc12)c1cccc(F)c1	-6.5%	15.6	-1.2%	.	-1.2%[15.4 µM]	0.4
Nc1nonc1-n1nnc(C(=O)N/N=C/c2ccccc2Cl)c1COc1ccc(F)cc1	-15.5%	-2.5	0.8%	3.9	-4.9%[15.4 µM]	0.5
Cc1oc2c(c1C(=O)NCc1cccc(Br)c1)C1=NCCN1C=N2	.	4.4	-3.0%	.	.	2.0
CCCC(=O)Nc1cc(C(=O)N(C)CC(OC)OC)ccc1S(=O)(=O)c1ccc(C)cc1	1.6%	14.9	-0.5%	3.5	-1.4%	0.6
CCCC(=O)Nc1ccc(C(=O)Nc2ccc([N+](=O)[O-])cc2OC)cc1	-15.8%	16.2	.	-1.6	2.3%	-0.2
O=C1C2C(C(=O)N1/N=C/c1cccc([N+](=O)[O-])c1)C1C=CC2C12CC2 (stereo not drawn)	2.5%	2.1	-1.8%	-2.3	?	-0.7
CCCCn1c(O)c(C(CC)=Nc2ccc3c(c2)CCC3)c(=O)[nH]c1=O	-17.7%	-12.5	-1.6%	-0.1	-6.9%	0.8
CCOC(=O)c1c(NC(=O)c2cc(Cl)ccc2Cl)sc2c1CCCC2	.	8.7	-0.7%	.	.	-0.3
Cc1cc(C)nc(NS(=O)(=O)c2ccc(N=NN(C)C)cc2)n1	-6.9%	3.0	1.5%	-3.3	20.4%	-0.5
O=C(NCc1ccc(F)cc1)C1Cc2ccccc2CN1C(=O)c1ccco1 (stereo not drawn)	-0.2%	3.2	1.4%	3.0	-11.0%	0.0
NS(=O)(=O)c1ccc(-n2nncc2-c2ccco2)cc1	1.1%	32.8	.	-3.2	-2.4%	-0.6
CCCCC(=O)O[C@H]1CC[C@H]2[C@@H]3CCc4cc(O)ccc4[C@H]3CC[C@]12C	1.3%	-5.0	-4.4%	-2.0	.	0.3
O=C(Nc1ccccc1C(=O)N1CCOCC1)c1ccc(Cl)cc1	7.2%	-1.7	-2.9%	3.6	25.8%	0.2
Cc1nn(Cc2ccccc2)c(C)c1C(=O)N1CCN(S(=O)(=O)/C=C/c2ccccc2)CC1	6.2%	-12.1	0.2%	.	-26.9%	-1.0
COC(=O)c1cc(S(=O)(=O)N2CCC(c3ccccc3)C2)c[nH]1 (stereo not drawn)	5.9%	-5.1	-0.9%	.	0.0%	0.3
O=C(COC(=O)c1cnccn1)NCCc1ccccc1	4.4%	21.3	-2.5%	0.6	-24.2%	-0.2
CC(C)C[C@H](NC(=O)CCn1nnc2ccccc2c1=O)C(=O)O	11.2%	4.9	1.2%	4.5	0.1%	0.0
CC1=C(C(=O)N(C(C)C)C(C)C)CC(CC(=O)NC2CC2)C(=O)N1Cc1ccccc1 (stereo not drawn)	.	-10.4	1.6%	.	.	0.8
Cc1ccccc1OCCn1c(=O)sc2ccccc21	-6.0%	4.2	1.5%	4.0	-2.1%	2.4
C=C(C)c1cccc(C(C)(C)NC(=O)NC2CCCC2)c1	-5.1%	-3.5	1.2%	2.1	1.2%[15.4 µM]	-0.2
COc1ccc(C(=O)OCC(=O)N2CCc3ccccc3C2)cc1OC	9.4%	-17.8	?	.	24.9%	0.4
CCOc1ccc(NC(=O)CSc2nnc(Cc3cccn3C)n2-c2ccc(F)cc2)cc1	-17.9%	-1.4	2.2%	5.0	-2.7%	2.0
O=S(=O)(NC1CCCCCCC1)c1ccc(F)cc1	2.9%	39.3	.	.	6.9%[15.4 µM]	1.2
Cc1nc2c(nnn2Cc2c(Cl)cccc2Cl)c(=O)[nH]1	6.8%	4.5	-2.5%	3.9	4.8%[15.4 µM]	-0.3
CC1CN(Cc2ccccc2)C(=S)N(c2ccccc2)C1=O (stereo not drawn)	-2.3%	-11.9	.	.	-1.7%	0.7
CNc1nc(NN)nc(Nc2ccccc2)n1	13.5%	6.7	0.8%	1.2	-51.9%[inhibitor]	-1.3
CCOc1ccccc1Oc1coc2cc(OCC(=O)O)ccc2c1=O	-2.9%	28.9	.	0.1	?	-0.9
O=C(N/N=C\c1ccccn1)C1COc2cc3ccccc3cc2O1 (stereo not drawn)	-17.9%[15.4 µM]	3.1	-0.7%	-4.9	-27.4%	0.1
CCOc1ccc(CNC(=O)C2CCCN(S(=O)(=O)N(C)c3ccc(F)cc3)C2)cc1OC (stereo not drawn)	.	-18.8	-0.3%	.	.	0.8

Looked up by structure from the entries so far:
molecule	gsp antag	TRPML1 inh	ClpP mod	Menin MLL FP FL	gsp agonist	TRPML1 agonist
CC(C)C[C@H](NC(=O)CCn1nnc2ccccc2c1=O)C(=O)O	11.2%	4.9	1.2%	4.5	0.1%	0.0
Cc1nc2c(nnn2Cc2c(Cl)cccc2Cl)c(=O)[nH]1	6.8%	4.5	-2.5%	3.9	4.8%[15.4 µM]	-0.3

Further compounds follow.
molecule	gsp antag	TRPML1 inh	ClpP mod	Menin MLL FP FL	gsp agonist	TRPML1 agonist
O=C(CCCN1C(=O)/C(=C/c2ccccc2OC(F)F)SC1=S)Nc1cccnc1	-12.8%	-4.6	0.0%	.	2.2%[15.4 µM]	0.6
O=C(Nc1nnc(SCc2ccc(Cl)cc2)s1)c1ccco1	11.0%	-5.9	-9.8%	4.2	28.2%	-1.4
Nc1nonc1C(=O)N/N=C/c1cc(Br)ccc1O	-2.9%	13.6	.	?	-10.3%[15.4 µM]	13.2
CN(C)c1ccc(-c2nnc(-c3ccccc3F)o2)cc1	-2.9%	2.6	3.7%	3.7	?	-0.3
CCOC(=O)c1ccc(NC(=O)c2ccc(CO)c(C(=O)NC3CCN(C(=O)OCC)CC3)c2)cc1	32.0%[activator]	-22.1	15.7%	-3.2	-15.6%	1.6
COc1nc(C)nc(C)c1Oc1ccc(Cl)cc1Cl	-11.0%	45.2	.	-2.3	-8.2%[15.4 µM]	1.2
O=[N+]([O-])c1cccc(N=Nc2ccc(O)cc2O)c1	?	5.0	.	.	15.9%	0.9
COc1ccccc1NC(=O)Cn1c(O)c(N=NC(=O)c2ccccc2O)c2ccccc21	-16.0%	6.2	1.9%	0.1	0.4%	-0.4
CCc1ccc(OC(=O)c2ccn(CC)n2)cc1	4.8%	0.3	-3.0%	0.4	5.2%	-0.7
COc1ccc(S(=O)(=O)N2CCCN(Cc3cccc(F)c3)CC2)cc1	-2.0%	13.8	-1.2%	1.5	0.0%	0.0
CN(C(=O)COC(=O)/C=C/c1ccccc1[N+](=O)[O-])c1ccccc1	-9.1%	-0.9	.	1.1	-11.0%[15.4 µM]	1.3
CCc1ccc(C(=O)COC(=O)c2ccccc2OC)cc1	-16.5%	5.3	-1.4%	.	-1.9%	1.9
